High-throughput results deposited in PubChem by several laboratories.
BJeLR viability: BJeLR cell viability loss | actives 0.17% (n = 300,000) | inhibition, % (no concentration beside the values) | BJeLR (HRASV12) viability, CellTiter-Glo ATP luminescence, 48 h; reference of the scale not given here;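 active means replicate mean above 50%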;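 further: 50 nL library stock added to about 25 µL; numbers are from one replicate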
Mtb hypoxia rep: inhibitors of hypoxia-regulated fluorescent reporter in Mycobacterium tuberculosis; M. tuberculosis hypoxia-regulated fluorescent reporter, fluorescence; fluorescence inhibition, % (no concentration beside the values); actives 0.1% (n = 300,000);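 active means 35 to 45% if threefold the growth effect, above 45% if 1.5-fold the growth effect; inactive means the rest, general growth blockers included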;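 further: wells of about 50 µL received 100 nL stock; 0% = vehicle wells and 100% = reference inhibitor wells; whole bacteria with a GFP reporter of the hypoxia response; strong numbers were not always called active; many hits fall short of the cut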
ugtP null kill: growth inhibition of S. aureus ugtP deletion strain | S. aureus RN4220 ugtP deletion, OD600 growth, 16 h; some inactives read as strong as hits | growth inhibition, % (test concentration not listed) | actives 0.54% (n = 330,000);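 active means z-score under -3 and OD600 up to 0.15 on both plates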;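 further: plate controls were untreated wells for no effect and antibiotic for full effect; wells of about 80 µL received 100 nL stock; the first replicate is given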
RN4220 kill: S. aureus RN4220 growth inhibition; actives 0.33% (n = 330,000); OD600, 16 h; inhibition, % (concentration not given with the values);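 active means z-score of -3 or lower and OD600 up to 0.18 on both plates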;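 further: plate controls were untreated cells for no effect and reference antibiotic for full effect; stock transfer was 100 nL into about 80 µL; one replicate is shown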
PrP UTR inh: inhibition of PrP 5' UTR reporter expression; cell-based PrP 5' UTR mRNA reporter, plate reader; inhibition, % (no concentration beside the values); actives 0.35% (n = 340,000); AID 488862;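 active means every replicate at 50% or more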;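 further: 0 = median of the neutral control wells; tested in H4 reporter cells; numbers are from one replicate; inactives centre near -14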
Autofluor counter: counter-screen for toxin protease inhibitors: compound fluorescence. compound autofluorescence counterscreen, microsphere flow cytometry; active compounds read high. fluorescence intensity (no concentration beside the values). actives 3.1% (n = 360,000);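 active means at least 3 SD above the mean of all compounds, about 16000 in these data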;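 further: 100 nL of 1 mM stock went into each well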
Mtb hypoxia rep growth: further read-out of Mtb hypoxia rep, marked with its call; growth inhibition, %; measured here: M. tuberculosis growth (absorbance);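 0% = vehicle and 100% = reference antibiotic; read after six days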
* hit, by the source's call; · = no result given.

SMILES	BJeLR viability	Mtb hypoxia rep	Mtb hypoxia rep growth	ugtP null kill	RN4220 kill	PrP UTR inh	Autofluor counter
CCCCC(=O)Nc1cc(C)c(NC(=O)c2ccco2)cn1	-15	6	7	7	4.1	-18	3110
COc1ccc(/C=C/C(=O)OC2CCCN(C)C2)cc1 (stereo unspecified)	2	·	·	·	·	-6	2283
Cc1ccccc1C(=O)c1cccn1CC(=O)O	-5	1	9	7	5.9	-10	2566
COc1cc(/C=N/N2CCN(c3ccccc3)CC2)cc(OC)c1OC(C)=O	-9	·	·	·	·	-13	3177
O=C(NCc1ccco1)C1(c2ccccc2)CCCC1	6	5	9	11	3.5	-12	10842
CCCn1c(=O)[nH]c(=O)c2c1nc(-c1ccc(OC(F)F)c(OC)c1)n2CCOC	0	3	13	6	15	-7	2438
FC(F)(F)c1cnc(COc2cc(Cl)cc(Cl)c2)c(Cl)c1	-8	15	8	26	0.9	-29	3420
O=C(COc1ccc2ccc(=O)oc2c1)Nc1c(Cl)cccc1C(F)(F)F	11	-5	0	-6	6.0	-7	5347
Cc1cccn2c(=O)c(C=NCCO)c(NCc3ccco3)nc12	-3	8	-1	10	9.7	-7	6615
c1cncc(-c2noc(C34CC5CC(CC(C5)C3)C4)n2)c1	9	·	·	15	1.2	-43	·
S=C(NCc1ccco1)N1CCN(c2ccccn2)CC1	5	8	5	13	4.4	-44	4188
C=CCOc1c(Br)cc(/C=C2\SC(=Nc3ccccc3)NC2=O)cc1OC	-1	-3	-3	-16	5.4	-18	3593
Cc1c(C(=O)N/N=C/c2ccccc2)sc(=S)n1C	3	·	·	·	·	-7	3342
COc1cnc(SCc2c(Cl)cccc2Cl)nc1Cl	-10	4	4	-11	0.7	-31	20944*
Nc1[nH]ncc1-c1ccc(F)cc1	-2	-3	-2	2	6.5	-13	2000
COC(=O)c1sc(NC(=O)COc2c(C)cccc2C)nc1C	-8	1	6	-7	2.9	-5	3290
CC(=O)c1cnc2cc(-c3cccc(Br)c3)nn2c1C	13	12	7	12	9.1	-115	4540
CCc1ccc(NC(=O)CCc2nnc3ccc(N4CCC5(CC4)OCCO5)nn23)cc1	-3	1	5	2	-0.6	-9	5875
Cc1cc(Cl)ccc1N(CC(=O)NCc1ccc2c(c1)OCO2)S(C)(=O)=O	0	6	-7	8	2.0	-16	4225
CSC(=NCc1ccco1)NC#N	-3	-8	-2	3	1.8	-16	4693
CCOc1cc(-c2nc(C)c(C(C)=O)n2O)ccc1OCC(=O)Nc1cccc(C)c1	·	2	15	9	-7.2	-22	4292
O=C(CSc1nnc(SCc2cccc3ccccc23)s1)NN=Cc1c[nH]c2ccccc12	·	-4	-2	-19	-9.5	·	·
Brc1ccc(-c2csc(NC3=NCCCCC3)n2)cc1	-11	22	13	-5	-1.1	-19	2694
COc1ccc2c(c1)CN(C)S(=O)(=O)c1ccccc1-2	·	-3	3	-1	7.3	-21	3823
CCCCC(=O)Nc1ccc(NC(=O)c2cccs2)cn1	-9	·	·	4	-6.0	47	2348
COC(=O)c1c(NC(=O)c2ccc(S(=O)(=O)N3CCOCC3)cc2)sc2c1CCN(C(C)C)C2	14	-1	-9	4	3.0	4	4157
Cc1ccc(C(=O)C(C)N(C(=O)c2ccc(Cl)cc2Cl)N2C(=O)CCCC2=O)cc1 (stereo unspecified)	2	-6	2	4	12	-21	3881
CCC(C)Cn1cnc2c(SCc3ccccn3)nc(N)nc21 (stereo unspecified)	·	5	7	8	6.0	-41	3307
Cc1ccccc1NS(=O)(=O)c1cc(C(=O)NCCC2=CCCCC2)ccc1C	1	-3	10	-29	1.3	-12	9579
CC(=O)C1=C(c2ccccc2)NC(=O)NC1c1ccc(O)c(Cl)c1 (stereo unspecified)	5	-2	-4	4	1.9	-34	3317
CN(CCOc1ccccc1)CC(O)COc1ccccc1 (stereo unspecified)	-2	-1	7	6	5.1	-18	3033
Cc1cccc(NC(=O)CN2CCCN(S(=O)(=O)c3ccc(Br)s3)CC2)c1	1	14	4	2	7.0	-7	3397
N=c1c(C(=O)NCCN2CCOCC2)cc2c(=O)n3ccccc3nc2n1CCCN1CCOCC1	-5	·	·	·	·	-11	4762
COc1cccc(NC(=O)COc2ccc(N3CC(C(=O)NCC(C)C)CC3=O)cc2)c1 (stereo unspecified)	3	17	12	2	1.7	-12	3325
CCC1(CC)C(=O)N(C)C(=O)NC1=NCc1ccccc1	-5	·	·	-3	-1.8	-21	2764
CCOC(=O)C(C(=O)Nc1ccc(C)cc1)C1CCCCC1 (stereo unspecified)	11	·	·	4	-3.4	-2	2287

Quoted from the entries so far, 4 compounds:
SMILES	BJeLR viability	Mtb hypoxia rep	Mtb hypoxia rep growth	ugtP null kill	RN4220 kill	PrP UTR inh	Autofluor counter
CC(=O)C1=C(c2ccccc2)NC(=O)NC1c1ccc(O)c(Cl)c1 (stereo unspecified)	5	-2	-4	4	1.9	-34	3317
CN(CCOc1ccccc1)CC(O)COc1ccccc1 (stereo unspecified)	-2	-1	7	6	5.1	-18	3033
Cc1cccc(NC(=O)CN2CCCN(S(=O)(=O)c3ccc(Br)s3)CC2)c1	1	14	4	2	7.0	-7	3397
N=c1c(C(=O)NCCN2CCOCC2)cc2c(=O)n3ccccc3nc2n1CCCN1CCOCC1	-5	·	·	·	·	-11	4762

(next part)
SMILES	BJeLR viability	Mtb hypoxia rep	Mtb hypoxia rep growth	ugtP null kill	RN4220 kill	PrP UTR inh	Autofluor counter
Cc1ccc(C(=O)Nc2ccccc2C(=O)N2CC3(C)CC2CC(C)(C)C3)cc1 (stereo unspecified)	1	·	·	5	0.1	1	3578
CCc1nnc(NC2=NCCC2)s1	9	·	·	-3	-0.9	-8	4133
Cc1cc(N)n2ncc(-c3ccc(F)cc3)c2n1	-12	·	·	17	-1.3	-52	4665
CCOc1ccc2nc(SCC(=O)c3ccc(C)s3)sc2c1	1	·	·	-3	9.0	2	4170
CCOc1ccc(/C=N/NC(=O)c2ccc(Cn3cc(Br)cn3)o2)cc1	1	·	·	·	·	-28	2531
COc1ccc(-c2cc(C(=O)N3CCN(c4ccccn4)CC3)c3ccccc3n2)cc1	4	5	10	0	1.7	-60	11887
Nc1nonc1NN=Cc1c(O)ccc2ccccc12	·	19	20	-19	-1.8	·	·
O=C1C=CC(=O)N1Cc1ccccn1	·	3	9	-6	-1.9	-1	3674
COc1ccc(CN2CCN(C(=O)c3ccc4nc(N5CCOCC5)sc4c3)CC2)c(OC)c1OC	-5	-8	5	3	3.7	-26	4078
O=C1CCCCCN1C(=O)c1ccccc1	·	9	2	-8	1.5	-19	3177
O=C1NN(c2ccccc2)C(=O)/C1=C/c1coc2ccccc2c1=O	-3	·	·	·	·	-16	2376
COc1cccc2c1cc1c(=O)n(CC(=O)NCCCc3ccccc3)nc(C)n12	-5	5	3	2	3.3	-2	6223
CCC(C)(C)C1CCC2(CC1)NC(=O)N(CC(=O)N(C)CCOc1ccc(Cl)cc1)C2=O (stereo unspecified)	·	1	2	3	3.6	-9	5697
Cc1csc2nc(SCC(=O)Nc3ccccc3F)[nH]c(=O)c12	-4	1	-5	1	3.6	-18	5969
O=C(c1ccc(Cl)c(S(=O)(=O)N2CCCCCC2)c1)N1CCN(CCO)CC1	2	·	·	-1	-1.6	-11	5034
O=c1[nH]c2ccccc2nc1Cc1ccc(Cl)cc1	-6	-9	-1	0	0.2	-9	6743
O=C(NCc1ccco1)c1ccc2ccccc2c1	-2	·	·	-13	-2.2	-64	8041
O=S(=O)(c1cccc(C(F)(F)F)c1)N1CCC(c2nc3ccccc3[nH]2)CC1	1	-1	7	1	-1.5	5	5212
COC(=O)COc1ccsc1C(=O)OC	-6	14	-1	11	7.0	·	8128
Cc1cc(C)c(C#N)c(N2CCN(C(=O)C3COc4ccccc4O3)CC2)n1 (stereo unspecified)	·	-2	8	4	-2.1	-17	3916
COc1ccc(NS(=O)(=O)c2ccc3c(c2)Cc2ccccc2-3)cn1	1	7	4	-15	3.8	-29	9466
CCn1c(=S)[nH]c2cc(C(=O)OC)ccc2c1=O	3	-2	-2	11	1.8	6	6493
COc1ccc(CCNC(=O)c2ccnc(C(C)(C)C)c2)cc1OC	4	-1	2	0	3.6	-13	6383
CNC(=S)N/N=C/c1cc(C)n(-c2ccc(Cl)c(Cl)c2)c1C	1	·	·	·	·	-42	2076
CNc1c(NS(=O)(=O)c2ccc(C3CCCCC3)cc2)c(=O)oc2ccccc12	-7	-9	4	-2	2.1	-16	3508
Cc1ccc2cc(CN(Cc3ccccc3)Cc3nnnn3C3CCCC3)c(=O)[nH]c2c1	-2	-10	0	-25	0.7	3	9414
CN(C(=O)CCc1ccccc1)c1nnc(-c2ccncc2)s1	1	-1	4	3	1.2	-22	3130
CC(=O)Nc1cccc(Oc2ncnc3scc(-c4ccc(C)cc4)c23)c1	3	-13	2	-16	0.0	4	2607
CN1c2ccccc2C(C)(C)C12CC(c1cccc(S(=O)(=O)N3CCCC3)c1)=NO2 (stereo unspecified)	24	7	-7	18	3.2	17	2509
O=C(N/N=C/c1ccc(C(F)(F)F)cc1)c1ccc(O)cc1	2	·	·	·	·	-56	3190
CCC(=O)C1CCCN(C(=O)c2ccc(OC)c(OC3CCN(C(C)=O)CC3)c2)C1 (stereo unspecified)	-1	8	3	13	2.7	-26	5963
COc1cc2cc(C(=O)N(C)Cc3ccccc3)[nH]c2cc1OC	-3	-1	3	2	2.4	-6	4175
COC(=O)/C=C1\SC(=NC(=O)c2cccc(Cl)c2)NC1=O	1	-4	-6	-5	17	-16	1981
Cc1ccc(C)c(N/C(N)=N/c2nc(C)cc(C)n2)c1	9	·	·	-7	4.6	-29	8077
CN(c1ccc(C(=O)N2CCCCC2)cc1)S(=O)(=O)c1ccccc1	-9	4	-1	0	3.6	-12	5136
COc1cc(C(C[N+](=O)[O-])c2c(C)[nH]c3ccccc23)ccc1O (stereo unspecified)	-4	9	1	6	6.0	-26	11203
c1ccc(CN2CCN(C(c3ccccc3)c3nnnn3Cc3ccccc3)CC2)cc1 (stereo unspecified)	-2	3	3	2	0.8	-3	4899
CC(=O)c1ccccc1NC(=O)CCN1C(=O)C2CCCCC2C1=O (stereo unspecified)	·	16	8	1	3.1	-18	3802
COc1cccc(CSc2nnc(CSc3nc4nc(C)cc(C)n4n3)s2)c1	-4	-1	5	-1	0.4	-9	5082
COC(=O)C1C2c3ccccc3C(c3ccccc32)C1(C)C(=O)OC (stereo unspecified)	·	6	5	-1	3.9	0	2756
Cc1cc(O)c(C(=O)/C=C/c2ccccc2Br)c(=O)o1	6	·	·	·	·	-19	3588
C=C(C=O)CC1CC(O)[C@]2(C)OC3CC4OC5C[C@]6(C)O[C@]7(C)CCC8OC9C[C@]%10(C)OC%11C(C)=CC(=O)OC%11CC%10OC9CC(C)C8OC7CC6O[C@]5(C)CC5OC5C4OC3CC2O1 (stereo partly specified)	·	3	-7	10	8.2	·	·
O=C(CN1CCN(Cc2ccc3c(c2)OCO3)CC1)Nc1ccc(N2CCOCC2)cc1	-1	15	8	3	2.6	-7	4539
N#CC[C@H](Cc1ccccc1)N1CCN(Cc2ccccc2)CCC1=O	1	·	·	·	·	-11	3448
Cc1ccc(C(=O)Nc2ccccc2N2CCCC2)s1	·	6	7	6	6.3	-6	4162
C=CCc1cccc(C=NNC(=O)C(C)Nc2ccc(C)cc2)c1O (stereo unspecified)	·	-2	0	-18	3.5	·	·
CCOc1cc(Br)c(C(=O)O)cc1OC	-7	1	12	0	1.5	-3	10349
Cc1csc(=O)n1CC(=O)OCC(=O)c1c(N)n(CC(C)C)c(=O)n(C)c1=O	-2	3	1	2	2.4	-5	4810
CCCN1CCC(NC(=O)C2CC=CCC2C(=O)O)CC1 (stereo unspecified)	4	2	5	9	5.3	-12	5603
O=C(CSc1nc2ccccc2[nH]1)N1CCN(S(=O)(=O)c2ccc(Cl)cc2)CC1	-3	1	9	1	11	-15	3263
Cc1cc(C)nc(SCC(=O)NC2CCCC2)n1	-5	9	7	4	6.6	-22	4600
COC(=O)c1sccc1NC(=S)N1C(C)CCCC1C (stereo unspecified)	2	-4	7	7	5.7	-10	4779
Cc1ccccc1NC(=S)NCCc1ccc(S(N)(=O)=O)cc1	-11	-3	3	0	3.5	-21	2908
